# KCNQ2 block: KCNQ2 potassium channel inhibitors, primary screen, cell-based, CHO-K1, FluxOR thallium flux, B-score (AID 2156) | O88943 | 20 min; active compounds read low; only compounds with negative scores are shown here; some inactives read as strong as hits | B-score at 10 µM | actives 1.1% (n = 310,000);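 active = fluorescence ratio B-score at most minus 3 library SDs, with starting brightness B-score within 2 library SDs, cut at about -5.5 in these data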
# Target sequence (O88943 whole entry, looked up): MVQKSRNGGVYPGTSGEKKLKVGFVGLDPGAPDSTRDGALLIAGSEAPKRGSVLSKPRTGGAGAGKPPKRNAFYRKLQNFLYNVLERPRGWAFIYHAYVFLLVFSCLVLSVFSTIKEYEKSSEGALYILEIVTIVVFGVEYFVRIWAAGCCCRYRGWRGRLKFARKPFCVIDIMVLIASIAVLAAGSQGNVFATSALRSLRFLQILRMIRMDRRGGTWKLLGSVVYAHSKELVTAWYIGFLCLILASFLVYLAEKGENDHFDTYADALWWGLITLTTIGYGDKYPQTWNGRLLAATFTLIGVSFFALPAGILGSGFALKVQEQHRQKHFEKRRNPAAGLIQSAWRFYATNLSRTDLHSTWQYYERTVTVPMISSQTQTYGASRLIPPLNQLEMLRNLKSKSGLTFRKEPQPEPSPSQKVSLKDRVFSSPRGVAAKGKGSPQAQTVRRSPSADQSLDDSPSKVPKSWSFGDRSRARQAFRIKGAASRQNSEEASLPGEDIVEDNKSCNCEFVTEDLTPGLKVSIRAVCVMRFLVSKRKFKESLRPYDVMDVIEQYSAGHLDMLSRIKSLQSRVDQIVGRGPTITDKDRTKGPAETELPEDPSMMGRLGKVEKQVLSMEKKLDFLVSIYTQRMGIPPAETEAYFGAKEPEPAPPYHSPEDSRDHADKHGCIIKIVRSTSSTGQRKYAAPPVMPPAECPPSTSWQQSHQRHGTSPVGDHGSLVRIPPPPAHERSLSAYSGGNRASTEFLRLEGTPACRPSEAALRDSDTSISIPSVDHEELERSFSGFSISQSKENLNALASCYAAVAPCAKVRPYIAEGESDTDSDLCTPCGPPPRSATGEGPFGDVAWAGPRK
# KCNQ2 block baseline: second read-out of KCNQ2 block, no call of its own (marks repeat the call); B-score; measured here: initial fluorescence intensity artifact check;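 brightness before thallium and not channel activity; 0 = typical well and far values either way flag optical interference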
# An asterisk follows results filed as active; i = inactive.
SMILES,KCNQ2 block,KCNQ2 block baseline
O=C(CCC(=O)NC1CCCCC1)NCc1ccc(F)cc1,i,0.65
O=C(NCC1OCCc2ccccc21)C1COc2ccccc2O1 (configuration not stated),i,1.6
O=C(c1ccc(F)cc1)C1CCN(C(=S)Nc2ccccc2Cl)CC1,i,0.96
Cc1ccc(C(C)C)c(OCc2nn(CC(=O)c3ccc(OC(F)F)cc3)c3[n+]2CCCCC3)c1,i,3.2
N#C/C(=C\C=C\c1ccccc1)C(=O)NCc1ccco1,i,0.63
O=C(NCCc1ccccc1)C1CCCN1C(=O)Nc1cccc(Cl)c1 (configuration not stated),i,-0.93
Cc1ccc(C(=O)c2cc([N+](=O)[O-])ccc2N2CCN(C)CC2)cc1,i,-0.69
O=C(CN(Cc1ccco1)C(=O)c1cc(=O)[nH]c2ccccc12)Nc1ccccc1C(F)(F)F,i,0.15
Cc1[nH]cnc1CSCc1ccc(Cl)cc1,i,-1.9
CC1Cc2ccccc2N1CC(=O)NC(=O)NCc1ccco1 (configuration not stated),i,0.02
CC(=O)c1ccc(N(C(=O)Cc2c[nH]c3ccccc23)C(C(=O)NC2CCCCC2)c2cccs2)cc1 (configuration not stated),i,0.01
O=C(NCc1ccco1)C(c1ccccc1F)N(CC1CCCO1)C(=O)Cn1nnc2ccccc21 (configuration not stated),i,2.2
CC1=CC2=NC(=O)CC(C)(C(=O)N(CC(=O)NC3CCCC3)c3ccccc3F)N2C=C1 (configuration not stated),i,2.2
C=CCOc1ccccc1CNCCc1ccc(S(N)(=O)=O)cc1,i,1.1
CCOc1ccc(NS(=O)(=O)c2cc(NC(=O)c3ccc(C)cc3)ccc2Cl)cc1,i,-1.8
COc1ccc(NC(=O)Cn2cnc3sc(C)c(S(=O)(=O)N4CCOCC4)c3c2=O)cc1Cl,i,-0.16
Cc1nn(-c2ccc(F)cc2)c2sc(C(=O)OC3CCOC3=O)cc12 (configuration not stated),i,-0.62
COCCN(C)Cc1cn(-c2ccc(F)cc2F)nc1-c1ccccc1C,i,0.35
O=C(N/N=C/c1ccc(OC(=O)c2ccc3c(c2)OCO3)cc1)c1cncc(Br)c1,i,1.5
C/C(=N/NC(=O)c1ccc(Br)o1)C(C)C,i,-0.97
CCCc1cc(C(=O)NC(C)C2CCCO2)cs1 (configuration not stated),i,-1.1
COC(=O)c1cc(C(=O)OC)cc(N2C(=O)CC(N3CCN(c4ccccc4)CC3)C2=O)c1 (configuration not stated),i,1.6
COc1ccc(-c2csc3ncnc(N4CCN(S(=O)(=O)c5ccccc5C#N)CC4)c23)cc1,i,1.3
CNC(=O)NC(=O)C(C)OC(=O)c1oc2ccccc2c1CSc1ccc(Cl)cc1 (configuration not stated),i,-0.44
O=C(Oc1c(CN2CCOCC2)cc(Cl)c2cccnc12)c1cccs1,i,-2
O=[N+]([O-])c1ccc2nc(-c3ccccc3[N+](=O)[O-])[nH]c2c1,i,-0.25
O=C(CC(NC(=O)c1ccccc1)c1ccccc1)Nc1cccc2ccccc12 (configuration not stated),i,-1.5
Cc1ccc(OCC(=O)N(C)CC(=O)N(CC(C)C)c2c(N)n(CC(C)C)c(=O)[nH]c2=O)c(C)c1,i,-1.3
COc1ccccc1-n1c(=O)[nH]c2c(C(N)=O)nc(CC(C)C)nc21,i,0.47
COc1cc2c(cc1NC(=O)c1ccco1)CCCC2,i,2.5
O=C1CCC(C(=O)N2CCSCC2)CN1CCc1cccc(F)c1 (configuration not stated),i,-1.1
O=C(c1cnn2c(C(F)(F)F)cc(-c3ccc(F)cc3)nc12)N1CCc2ccccc2C1,-6.3*,-0.98*
Cc1cccc(NC(=O)c2ccc(OC3CSC3)cc2)c1,i,-0.73
Cc1ccc(C(=O)Nc2cccc(Oc3ccccc3)c2)o1,i,-3.5
CCOc1ccc(C(=O)N2CCc3ccccc32)cc1OCC,i,-0.73
O=C(NCC1CCCO1)c1cc2c([nH]c3ccccc32)c(-c2ccc(F)cc2)n1 (configuration not stated),-9*,-0.47*
O=C(O[C@H]1[C@H](Oc2ccccc2COC(=O)C2(O)C=CCCC2=O)O[C@H](CO)[C@@H](O)[C@@H]1O)c1ccccc1 (some centres not stated),i,-1.4
Cc1[nH]c(=O)[nH]c(=O)c1S(=O)(=O)Nc1ccc(F)cc1F,i,-0.22
Cc1cccnc1NC(=O)c1ccc2c(c1)OCO2,i,-0.34
Cc1cc(NC(=O)Nc2ccccc2)n(C(C)(C)C)n1,i,0.16
CCOC(=O)c1ccc(Cl)c(NC(=O)c2cccnc2)c1,i,-1.3
N#Cc1ccc(Oc2nc(C#N)cc(-c3ccccc3)n2)cc1,i,-1.3
COC(=O)c1ccc(NC(=S)Nc2ccc3ccccc3c2)cc1,i,-0.18
CN(C)c1ccc(C(=S)N2CCCCC2)cc1Br,i,-0.27
O=S(=O)(c1ccc(C2=CSC3=NCCN23)cc1)N1CCOCC1,i,-0.27
COc1ccc(CCNc2nc(-c3cccnc3)cs2)cc1OC,i,-1.3
COc1ccccc1NC(=O)NNC(=O)COc1ccc2ccccc2c1,i,1.5
COc1ccc(NC(=O)CN2C(=O)CSC(C)C2=O)cc1 (configuration not stated),i,0.22
CCN(CC)S(=O)(=O)c1ccc(Cl)c(C(=O)Nc2cc(C)nn2-c2ccccc2C(F)(F)F)c1,i,-1.2
O=C(COC(=O)C1CCN(S(=O)(=O)c2cccs2)CC1)c1ccc2c(c1)OCCO2,i,-1
O=C(NC1CC1)C1=C[C@@H](c2ccc(C(F)(F)F)cc2)C[C@@H](OCCCCO)O1,i,-0.11
CCCC(=O)NNC(=O)c1c(O)c2ccccc2[nH]c1=O,i,2.1
CC(Oc1ccccc1F)C(=O)NC1CCS(=O)(=O)C1 (configuration not stated),i,-2.2
CCCC(=O)C1=C(O)C(C(=O)OC)C(C)(C)CC1=NCCCCCC(=O)O (configuration not stated),i,0.01
CC(OC(=O)Cc1coc2cc3c(cc12)CCC3)C(=O)NC(N)=O (configuration not stated),i,0.67
COc1ccccc1N1CCN(C(=O)CSc2nnc(-c3ccoc3C)o2)CC1,i,0.12
O=C(c1cnn(-c2nc3ccccc3s2)c1)c1ccccc1O,i,1.1
CCOC(=O)c1c(-c2ccc(Cl)cc2)csc1NC(=O)CNCc1ccco1,i,-0.87
CC(C)=CCc1c(O)cc2oc3c(CC=C(C)C)c(O)c(O)c(CC=C(C)C)c3c(=O)c2c1O,-12*,0.1*
O=C(c1cc2cc(Cl)ccc2[nH]1)N1CCN(Cc2ccc3c(c2)OCO3)CC1,i,-0.64
# Next part.
SMILES,KCNQ2 block,KCNQ2 block baseline
CCCN1C(=O)/C(=C\C=C2/Sc3ccccc3N2CC)SC1=S,i,-1.5
O=C1NC2(CCCCC2)CO1,i,-1.1
COC(=O)Nc1ccc(S(=O)(=O)N2CCN(C)CC2)cc1,i,-0.72
CN(C(=O)COC(=O)COc1ccccc1Cc1ccccc1)c1ccccc1,i,0.62
O=C1c2ccccc2N2C(=O)c3ccccc3C2N1Cc1ccccc1 (configuration not stated),i,-0.48
CCCSc1nc(N)c2c3c(sc2n1)CN(C)CC3,i,0.63
O=C(COC(=O)C1(c2ccc(F)cc2)CCCC1)N1CCc2ccccc21,i,0.91
Cc1cc(Br)ccc1OCCCCNC(C)(C)C,i,0.61
O=c1ccc(-c2ccccc2)nn1Cc1ccccc1,i,0.47
N#C/C(=N\Nc1cc(Cl)cc(Cl)c1)c1nnc2n1CCCCC2,i,-1.5
CCCCNC(=O)C1(NC(=O)Nc2ccc(C)cc2)CCCCC1,i,0.5
COc1ccc(/C=C/C(=O)NC(=S)NN2CCCCC2c2cccnc2)cc1 (configuration not stated),i,-2.1
N#Cc1ccc(CSc2nc(N)cc(N)n2)cc1,i,0.36
COc1ccc(C(=O)OCC(=O)c2ccc(Br)s2)c(OC)c1,i,0.25
O=C(NNc1c(Cl)cncc1Cl)c1cccs1,i,-0.42
CCc1ccc(N2CCN(S(=O)(=O)CC34CCC(CC3=O)C4(C)C)CC2)cc1 (configuration not stated),i,-1
CSc1ncc(CN2CCc3c([nH]c4ccccc34)C2C(C)(C)C)cn1 (configuration not stated),i,0.98
Cc1ccc(N(CC(=O)N/N=C/c2cccs2)S(C)(=O)=O)cc1,i,2.2
CCc1cc(C(=O)NNC(=S)NC(C)c2ccccc2)cs1 (configuration not stated),i,-0.42
CCN(C(=O)c1cn(C)c(=O)c2cc(OC)c(OC)cc12)c1cc(C)ccc1C,i,-0.28
COC(=O)Nc1sc2c(c1C(=O)NCc1ccco1)CCC2,i,0.49
COc1ccc(/C=C(\NC(=O)c2ccccc2)C(=O)NCc2cccnc2)cc1,i,1.5
O=C(NC1CCCCC1)C(c1ccc2ncccc2c1)N(Cc1cccs1)C(=O)c1cccs1 (configuration not stated),i,-1.2
CCOC(=O)N1CCN(C(=O)C2CCN(S(=O)(=O)c3ccc(F)cc3)CC2)CC1,i,0.44

# Entries from the list above that contain a thiophene ring, fused or not (15):
SMILES,KCNQ2 block,KCNQ2 block baseline
CC(=O)c1ccc(N(C(=O)Cc2c[nH]c3ccccc23)C(C(=O)NC2CCCCC2)c2cccs2)cc1 (configuration not stated),i,0.01
COc1ccc(NC(=O)Cn2cnc3sc(C)c(S(=O)(=O)N4CCOCC4)c3c2=O)cc1Cl,i,-0.16
Cc1nn(-c2ccc(F)cc2)c2sc(C(=O)OC3CCOC3=O)cc12 (configuration not stated),i,-0.62
CCCc1cc(C(=O)NC(C)C2CCCO2)cs1 (configuration not stated),i,-1.1
COc1ccc(-c2csc3ncnc(N4CCN(S(=O)(=O)c5ccccc5C#N)CC4)c23)cc1,i,1.3
O=C(Oc1c(CN2CCOCC2)cc(Cl)c2cccnc12)c1cccs1,i,-2
O=C(COC(=O)C1CCN(S(=O)(=O)c2cccs2)CC1)c1ccc2c(c1)OCCO2,i,-1
CCOC(=O)c1c(-c2ccc(Cl)cc2)csc1NC(=O)CNCc1ccco1,i,-0.87
CCCSc1nc(N)c2c3c(sc2n1)CN(C)CC3,i,0.63
COc1ccc(C(=O)OCC(=O)c2ccc(Br)s2)c(OC)c1,i,0.25
O=C(NNc1c(Cl)cncc1Cl)c1cccs1,i,-0.42
Cc1ccc(N(CC(=O)N/N=C/c2cccs2)S(C)(=O)=O)cc1,i,2.2
CCc1cc(C(=O)NNC(=S)NC(C)c2ccccc2)cs1 (configuration not stated),i,-0.42
COC(=O)Nc1sc2c(c1C(=O)NCc1ccco1)CCC2,i,0.49
O=C(NC1CCCCC1)C(c1ccc2ncccc2c1)N(Cc1cccs1)C(=O)c1cccs1 (configuration not stated),i,-1.2

# Remaining list, next part:
SMILES,KCNQ2 block,KCNQ2 block baseline
Cc1ccc(COCCN2CCN(S(=O)(=O)c3ccc(C)cc3)CCC2=O)cc1,i,-2
COC(=O)CN(C#N)c1nc(NCc2ccccc2)nc(OC)n1,i,-0.39
O=C(NCc1ccccc1)C1=C[C@H](c2coc3ccccc3c2=O)C[C@H](OCc2ccc(CO)cc2)O1,i,-1.9
COc1ccc2c(c1O)-c1ccccc1CCN(C)C2,i,-0.73
COc1ccc(C(C(=O)NC2CCCCC2)N(Cc2cccs2)C(=O)Cc2c[nH]c3ccccc23)cc1 (configuration not stated),i,-1.6
CC(=O)OCc1c(COC(C)=O)[n+](=O)c2ccccc2n1[O-],i,2.8
CN(CCC#N)C(=O)Cn1nc(Cc2ccncc2)c2ccccc2c1=O,i,0.38
CCN(Cc1ccncc1)C(=O)c1cc(COc2ccc(C)c(C)c2)on1,i,-0.59
CC(C)C[C@@H](CO)N1CCN(Cc2ccc([N+](=O)[O-])cc2)CCC1=O,i,1.8
N#Cc1nc(-c2cccs2)oc1N1CCN(Cc2ccccc2)CC1,i,-0.98
CC(CC(=O)O)CC(=O)Nc1ccccc1C(=O)O (configuration not stated),i,-0.08
COCCCn1c(SCC(=O)n2c(C)c(C)c3ccccc32)nnc1-c1ccoc1C,i,-0.67
O=C(Nc1nccs1)C(c1ccccc1)N1CCCCC1 (configuration not stated),i,1.1
c1ccc(Nc2cc(Nc3ccccc3)[nH]n2)cc1,i,-0.6
COc1ccc(-c2nn(-c3ccccc3)cc2C(=O)NC2CCC(C)CC2)cc1 (configuration not stated),i,1.6
O=C(Nc1ccccc1)Nn1cnnc1,i,1.4
Cc1nc(C)c(C(=O)Nc2cccc(Cl)c2)o1,i,0.38
CC(C)(C)OC(=O)N/N=C\c1cccnc1,i,1.5
CCN(CC)c1ccc(/C=N/NC(=S)NCc2ccccc2)cc1,i,-0.55
O=CNCCCc1nc2ccccc2n1CCc1ccccc1,i,-1.9
O=C(COc1ccc(Cl)cc1)NCCNc1ccc([N+](=O)[O-])cc1,i,-0.44
Cc1cc(C)c2[nH]c(=O)c(CN(Cc3ccccc3)C(=S)NCCCN(C)C)cc2c1,i,-0.32
COC(=O)c1ccc(N/C(C)=C/C(=O)c2ccc(C)o2)cc1,i,0.94
COC(=O)c1c(C(=O)OC)c(-c2ccc(F)cc2)n2c1CSC2,i,0.15
COC(=O)c1c(NC(=O)CN2CCN(c3ncccn3)CC2)sc(C(N)=O)c1C,i,-2
COc1ccccc1-c1nnc(Sc2nc([N+](=O)[O-])nn2C)o1,i,-0.67
COc1cccc(/C=N/N2C(=O)CSC2=S)c1O,i,1.6
CCOC(=O)c1c(NC(=O)c2cc(C)oc2C)sc(C(=O)Nc2ccc(Cl)cc2)c1C,i,0.89
CCCC(=O)C1=C(O)C(c2cccc(Oc3ccccc3)c2)CCC1=O (configuration not stated),i,0.51
COc1ccc(NC(=O)c2ccccc2NC(=O)c2cccs2)cc1,i,-0.32
COc1ccc(C2=NS(=O)(=O)N(C)C(C(=O)N3CCCCC3C)=C2)cc1 (configuration not stated),i,-0.03
COc1ccc(C(=O)NC2CCN(C(=O)Nc3ccc(F)cc3)CC2)cc1,i,0.19
COC(=O)c1ccccc1NC(=O)COC(=O)CO/N=C(\C)c1ccc2c(c1)OCO2,i,0.36
COc1cc2c(cc1NC(=O)COC(=O)[C@@H](NS(=O)(=O)c1cccc(Cl)c1)C(C)C)oc1ccccc12,i,0.44
CC(C)C1Nc2ccc(C(=O)O)cc2C2C=CCC21 (configuration not stated),i,0.22
CS(=O)(=O)Nc1cccc(C2=NN(S(C)(=O)=O)C(c3ccccc3)C2)c1 (configuration not stated),i,2.4
O=C(Nc1sc2c(c1C(=O)O)CCC2)c1cccs1,i,-0.79

# From PubChem BioAssay

# A portion of the library. The share of hits here may be higher or lower than overall.
